Sa growth 42C: inhibitors of Staphylococcus aureus growth at 42 °C. S. aureus RN4220 growth, OD600, 20 h; hits give low values. relative growth, % (concentration not given with the values). hit rate 0.53% among 170,000;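 active = growth at 42 °C up to 50% and 20 or more points under that at 30 °C, or under 10% at both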;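 also: 300 nL library stock went into each well; scaled to the means of positive and negative controls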
GIV-Gai inh: blocks GIV peptide binding to rat Galpha-i3. P08753. Galpha-i3/FITC-GIV peptide fluorescence polarization, 90 min; hits give low values; scaled: aluminum fluoride 0%, vehicle 100%. percent of control (FP), % (concentration not given with the values). hit rate 0.42% among 210,000. AID 1224905;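 active = replicate mean at 85% of control or lower, very high polarization wells dropped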;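 also: wells of about 15 µL received 100 nL stock; the first replicate is given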
Target sequence (P08753 whole entry, looked up): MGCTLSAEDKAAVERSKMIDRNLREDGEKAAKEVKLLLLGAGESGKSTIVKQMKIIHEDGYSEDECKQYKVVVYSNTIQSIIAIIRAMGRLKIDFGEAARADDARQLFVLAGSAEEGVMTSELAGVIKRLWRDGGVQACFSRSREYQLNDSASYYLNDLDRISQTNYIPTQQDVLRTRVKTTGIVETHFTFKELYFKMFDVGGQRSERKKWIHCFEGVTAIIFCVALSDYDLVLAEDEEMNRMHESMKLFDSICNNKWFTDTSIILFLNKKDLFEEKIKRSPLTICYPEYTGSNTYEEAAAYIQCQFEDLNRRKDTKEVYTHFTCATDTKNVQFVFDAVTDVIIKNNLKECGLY
HCMV NEC inh: inhibitors of HCMV UL50-UL53 nuclear egress complex interaction. HTRF UL50-UL53 interaction, normalized percent inhibition. inhibition, % (no concentration beside the values). hit rate 0.15% among 190,000;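 active = both replicates at 50% or more, plus weaker picks with an unusually low signal ratio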;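 also: stock transfer was 100 nL into about 20 µL; 0% = negative control wells and 100% = wells with untagged competitor protein; inactives centre near -12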
Sa growth 42C second temp: recorded beside Sa growth 42C, whose call it bears; relative growth, %; measured here: growth at 30 °C;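 optical density after 20 h as mean of two plates; 100% = untreated growth and lower means inhibition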
* marks the source's active call; other numbers are inactive results; . = not tested or not shown; & = joins results of further samples. Not a hit list; 0.85% or so of the library scored in one or more.

SMILES	Sa growth 42C	Sa growth 42C second temp	GIV-Gai inh	HCMV NEC inh
NC(=O)c1ccccc1NC(=O)c1ccc(-c2ccc(Br)cc2)o1	107	93	104	-32
CNC(=S)NC(C)C1CC2CCC1C2 (stereo not drawn)	85	90	.	-4
CCN(CC)c1ccc2cc(C(=O)O)c(=O)oc2c1	107	85	115	-39
O=C1c2ccccc2C2(c3ccccc3)NCCCN12 (stereo not drawn)	99	88	104	-5
CN1CN=C(SCc2ccc(C#N)cc2)NC1	69	90	101	-4
COc1ccc(C(=O)Nc2ccc3ncsc3c2)cc1	101	89	.	-5
CCCCC(Sc1nc(N)c(NC(=O)c2ccc(OC)cc2)c(=O)[nH]1)C(=O)O (stereo not drawn)	101	101	109	-4
Cc1ccc(C(C)C)c(OCCSc2nc(-c3cccs3)nc3cc(=O)[nH]n23)c1	81	90	100	.
COc1ccc(/C=C/C(=O)NCc2ccncc2)cc1	102	103	100	-32
CC(NCCCO)c1ccncc1 (stereo not drawn)	85	89	106	-23
CC(=O)N1C(=O)N(C(C)=O)C(O)C1O (stereo not drawn)	111	85	.	-11
Cc1ccc2nc(CCc3cccc(NC(=O)c4cccnc4)c3)[nH]c2c1	.	.	110	-29
Cc1ccc(S(=O)(=O)C2(C(=O)Nc3ccc(Cl)c(C(F)(F)F)c3)CC2)cc1	97	87	104	0
Brc1ccc(C(c2nnc(-c3ccccc3)o2)N2CCN(c3ccccn3)CC2)cc1 (stereo not drawn)	.	.	102	33
CC(C(=O)NC1=NCCS1)N1C(=O)c2ccccc2C1=O (stereo not drawn)	88	96	.	-1
COc1ccccc1C(=O)COC(=O)C1CC(=O)N(CCc2ccccc2)C1 (stereo not drawn)	110	93	.	8
CCCN(CCC)C(C(=O)Nc1cccc(OC)c1)c1ccccc1 (stereo not drawn)	98	87	.	-24
CCc1ccc(NC(=O)COC(=O)CN2C(=O)COc3ccccc32)cc1	103	101	.	0
CCOC(=O)c1[nH]c(C)c(CN(C2CCCCC2)S(C)(=O)=O)c1C	92	86	101	-30
Cc1nnc(Nc2ccc(C(C)C)cc2)[nH]c1=O	.	.	99	-22
COc1ccc(CSc2nc3ccncc3n2CC(=O)Nc2cc(C)cc(C)c2)cc1	111	77	100	41
CCOC(=O)c1cnc(-c2ccccc2)nc1Nc1ccc(C)cc1	134	91	103	-6
O=C(OCc1cc(=O)n2nc(-c3cccs3)sc2n1)c1cccc(F)c1	104	89	106	.
CSc1ccc(C2C(C(=O)Nc3cccc(C(F)(F)F)c3)=C(C)NC3=C2C(=O)CC(c2ccccc2)C3)cc1 (stereo not drawn)	.	.	102	8
COc1ccc(-n2nnc3c(SCC(=O)NCC4CCCO4)ncnc32)cc1 (stereo not drawn)	102	91	109	-27
The listing continues:
SMILES	Sa growth 42C	Sa growth 42C second temp	GIV-Gai inh	HCMV NEC inh
COc1ccc(C(=O)Nc2ccc(N3CCN(c4ccccc4)CC3)c(C(=O)O)c2)cc1	101	92	104	.
COC(=O)c1cc(S(=O)(=O)N2CCN(c3ccc(OC)cc3)CC2)c[nH]1	126	83	105	.
COC(=O)/C(=C(/O)CSc1nnc(COc2ccccc2Cl)n1C)c1nc2ccccc2[nH]1	98	100	.	-14
Cc1ccc(CSc2nc3ccc(NC(=O)C(C)C)cc3s2)cc1	99	87	100	-17
Cc1ccc(C(=O)NC(C)(C)C)cc1	85	82	106	-16
CN1CCN(C(=O)Oc2ccccc2)CC1	95	90	101	32
O=C(CCSCc1cccc(F)c1)NCc1ccccc1	102	90	104	.
O=C(CC(NCCC1=CCCCC1)C(=O)O)Nc1ccccc1Cl (stereo not drawn)	98	82	99	-38
NC(=O)NCc1ccc(C(=O)O)cc1	98	96	.	5
CCOC(=O)c1cc(-c2ccccc2)n(CCC(=O)Nc2cc(OCC)ccc2OCC)c1C	110	91	100	.
COc1ccc(CCNC(=O)c2ccc3nc(Cc4ccccc4)oc3c2)cc1OC	106	81	104	.
COc1cc(NC(=O)c2cc3n(n2)C(C(F)(F)F)CC(c2ccc(Cl)cc2)N3)cc(OC)c1OC (stereo not drawn)	.	.	87	-18
Cc1ccc(-n2c(=O)cc(N3CCCCCC3)[nH]c2=O)cc1	134	91	96	5
COc1ccccc1C(=O)Nc1cc(-c2cccc(Br)c2)nn1-c1ccccc1	91	88	110&108	.
CCCC(=O)Nc1cc(C(=O)O)ccc1S(=O)(=O)c1ccc(Cl)cc1	92	84	102	.
CCn1cc(S(=O)(=O)c2ccccc2)c(=O)c2cc(C)ccc21	91	96	113	-1
C=CCNC(=O)c1cc(-c2ccccn2)nc2ccccc12	97	82	113&114	-59&-46
Cc1cccc(NC(=O)CSc2nc3c([nH]c4ccccc43)c(=O)n2-c2cc(C)cc(C)c2)c1	124	73	99	.
Cc1cc(SCc2ccccn2)nc(=O)[nH]1	102	102	108	1
COC(=O)c1cc(OCC(=O)Nc2ccc(Br)cc2)c2cc(C)ccc2n1	.	.	97	-6
Clc1ccc(CSCc2nc3ccccc3[nH]2)cc1	97	58	100	.
CC(C)OP(C)(=O)CN1CCN(CP(C)(=O)OC(C)C)CC1 (stereo not drawn)	84	97	100	-7
CCc1sc(-c2nnc(CN3CCN(S(=O)(=O)c4ccc5c(c4)CCC5)CC3)o2)cc1C	102	88	.	1
Cc1c(C(=O)NCc2cccnc2)oc2ccc3c(c12)C(O)CC1(CCCCC1)O3 (stereo not drawn)	96	80	98	-30
CCn1cc(C(=O)N2CCN(c3cccc(Cl)c3)CC2)c(=O)c2cc(S(=O)(=O)N3CCCCC3)ccc21	96	97	98	-14
(list continues)
SMILES	Sa growth 42C	Sa growth 42C second temp	GIV-Gai inh	HCMV NEC inh
c1ccc(-c2nnc3sc(-c4ccncc4)nn23)nc1	.	.	99	-6
COc1ccccc1C(=O)COC(=O)COc1ccc(C#N)cc1	97	92	.	-13
CC(/C=C/c1ccccc1)=N\Nc1nc2c(c(=O)[nH]c(=O)n2C)n1CC(O)COC(C)C (stereo not drawn)	99	95	99	-27
Cc1ncc2c(N)ncnc2n1	98	88	100	-26
COc1ccc(S(=O)(=O)N(C)C)cc1	96	98	.	-3
COc1ccc(-c2nnc(OC)c3ccccc23)cc1	.	.	107	-31
COC(=O)C1=C(N)Oc2cc(C)oc(=O)c2C1c1cccnc1 (stereo not drawn)	111	86	103	.
CCNc1nc(SCc2ccc(Cl)cc2)nc2sc3c(c12)CCN(C)C3	10.0*	-0.1*	127	21
CC(NC(=O)c1ccccc1)c1nc(-c2ccc(N3CCCCC3)cc2)no1 (stereo not drawn)	.	.	105	-25
O=C1CN(C(=O)CSCc2cc(=O)n3c4c(sc3n2)CCCC4)c2ccccc2N1	94	88	.	-44
COCCN1C(=O)N(c2cccc(C)c2)C(=O)C1CC(=O)Nc1cccc(F)c1 (stereo not drawn)	104	86	107	-26
CC(C)c1ccc(NC(=O)CSC2=Nc3ccccc3C3=NC(CCC(=O)NCc4ccc(F)cc4)C(=O)N23)cc1 (stereo not drawn)	136	85	100	.
O=C(c1cc2ccccc2o1)N(CC1CCCO1)c1nc2ccccc2s1 (stereo not drawn)	101	85	.	-14
CC(C)C1Cc2c(sc3nc(SCC(=O)Nc4ccccc4)nc(N)c23)CO1 (stereo not drawn)	91	82	99	.
O=c1oc2ccccc2n1Cc1cc2c(cc1Br)OCO2	99	83	99	-31
Cc1nc(=O)c(-c2ccccc2)c(C)n1-c1ccccc1O	93	86	106	-28
Cc1cccc(OCC(=O)Nc2c(C(=O)Nc3ccc(F)cc3)oc3ccccc23)c1	115	89	108	-37
Cc1ccc(-n2c(=O)[nH]cc(C(=O)N3CCc4ccccc43)c2=O)cc1	100	87	103	.
CN1/C(=C\C(=O)CSc2ncn[nH]2)C(C)(C)c2ccccc21	81	74	.	-32
C(=C/c1ccccc1)/CN1CCN(Cn2nnc3ccccc32)CC1	97	116	.	-36
Cc1ccc(NC(=O)c2ccc(Br)cc2)c(C(=O)c2ccccc2)c1	97	86	107	-11
CCOC(=O)N1CCC(NS(=O)(=O)c2ccc3oc(=O)c4ncn(CC)c4c3c2)CC1	75	94	108	.
CCOC(=O)C1CCC(CNCc2ccc(OC)cc2)CC1 (stereo not drawn)	121	88	106	.
Cc1ccc(NC(=O)Cn2c(=O)n(Cc3nc(-c4ccccc4)no3)c(=O)c3cc4c(cc32)OCO4)cc1C	89	96	100	.
CCCNC(=O)Cc1ccc(-n2c(=O)c3ccccc3n(CC(=O)N3CCCCC3)c2=O)cc1	.	.	104	0

Fetched one by one from the list above:
SMILES	Sa growth 42C	Sa growth 42C second temp	GIV-Gai inh	HCMV NEC inh
CCCNC(=O)Cc1ccc(-n2c(=O)c3ccccc3n(CC(=O)N3CCCCC3)c2=O)cc1	.	.	104	0
Cc1nc(=O)c(-c2ccccc2)c(C)n1-c1ccccc1O	93	86	106	-28

Following part
SMILES	Sa growth 42C	Sa growth 42C second temp	GIV-Gai inh	HCMV NEC inh
C=CCNc1nnc(SCC(=O)NC(=O)c2ccccc2OC)s1	100	106	.	24
O=c1cc(N2CCCCC2)nc2scc(-c3ccc(Cl)cc3)n12	.	.	130	5
C=C(C)c1cccc(C(C)(C)NC(=O)Nc2ccc3[nH]c(=O)[nH]c3c2)c1	88	80	.	-14
O=C(NCCOCCn1c(=O)oc2ccccc21)Nc1ccc(Cl)cc1	102	82	100	-33
CC(c1ccccc1)n1cnc2scc(-c3ccccc3)c2c1=O (stereo not drawn)	.	.	102	-27
O=C(O)c1cccc(NCC2SC(=S)NC2=O)c1 (stereo not drawn)	86	85	.	-1
C1=CCC(CNCCCN2CCOCC2)CC1 (stereo not drawn)	107	84	104	7
CC(C#N)OC(=O)CSc1nnc(-c2ccccc2F)n1-c1ccccc1 (stereo not drawn)	93	89	.	-1
CCCCNC(=O)C1CCCN(S(C)(=O)=O)C1 (stereo not drawn)	95	102	110	8
Cc1ccc(C(=O)N(C)S(=O)(=O)c2ccc(C)cc2)cc1	109	79	.	-31
COCC(=O)Nc1cc(Sc2ccccc2)ccc1N=C(NC(C)=O)NC(C)=O	114	64	.	-2
Cc1cccc(NC(=O)N2CCC(C)CC2)c1C	98	105	101	0
CC(C)c1ccc(S(=O)(=O)c2cn(CC(=O)Nc3ccc(F)cc3)c3ccccc3c2=O)cc1	106	84	105&100	-16&18
Cc1ccc(NC(=O)CSc2nc3ncnc(N)c3[nH]2)c(C)c1	93	87	102	.
Nc1ccc2cn[nH]c2c1	87	92	.	-30
Nn1c(SCC(=O)NC2CCCC2)nnc1-c1ccc(Cl)cc1Cl	99	93	.	11
Cc1ccccc1-c1ccnc2c1c(=O)n(C)c(=O)n2C	.	.	103	-25
O=C(/C=C/c1cccc(C(F)(F)F)c1)OCC(=O)c1ccc(Cl)s1	95	87	.	-14
CCn1c2ccccc2c2cc(CN3CCC(N4CCCCC4)CC3)ccc21	121	84	107	.
CCOc1ccc(CCN2CN(CC)CNC2=S)cc1OCC	73	57	102	-38
CCN(CC)S(=O)(=O)c1ccc2c(c1)nc(CN(C)C(=O)c1cccc(C)c1)n2C	.	.	106	-20
O=c1c2ccccc2nnn1-c1ccc(Br)cc1	87	88	100	-34
Cc1ccc(Cl)cc1N1CCN(S(=O)(=O)c2ccc3oc(=O)c4ncn(C)c4c3c2)CC1	91	102	106	12
Cc1ccc(C(=O)NCC(C)(C)N2CCOCC2)s1	115	101	.	-9
COc1ccc(C2C(C(=O)Nc3ccc(OC)c(OC)c3)c3ccccc3C(=O)N2c2ccc(OC)cc2)cc1 (stereo not drawn)	.	.	97	-21

An excerpt from above in order of SMILES length, smallest number first:
SMILES	Sa growth 42C	Sa growth 42C second temp	GIV-Gai inh	HCMV NEC inh
O=c1c2ccccc2nnn1-c1ccc(Br)cc1	87	88	100	-34
CCOc1ccc(CCN2CN(CC)CNC2=S)cc1OCC	73	57	102	-38
Cc1ccc(NC(=O)CSc2nc3ncnc(N)c3[nH]2)c(C)c1	93	87	102	.
O=C(/C=C/c1cccc(C(F)(F)F)c1)OCC(=O)c1ccc(Cl)s1	95	87	.	-14
COCC(=O)Nc1cc(Sc2ccccc2)ccc1N=C(NC(C)=O)NC(C)=O	114	64	.	-2
CCN(CC)S(=O)(=O)c1ccc2c(c1)nc(CN(C)C(=O)c1cccc(C)c1)n2C	.	.	106	-20

The results go on:
SMILES	Sa growth 42C	Sa growth 42C second temp	GIV-Gai inh	HCMV NEC inh
CS(=O)(=O)/C(C#N)=C/Nc1ncccn1	96	95	103	-29
Nc1nnc(SCC(=O)N2CCCCC2)n1CC(=O)N1CCCCC1	111	107	102	-4
CN(C)CCNC(=O)c1ccc(-n2c(-c3ccccc3)cc3c2CCCCC3)cc1	125	122	103	12
Cc1ccc(Cl)cc1NC(=O)c1c(O)c2ccccc2[nH]c1=O	.	.	109	-22
FC(F)(F)c1cc(-c2noc(C3CCc4ccccc4O3)n2)cc(C(F)(F)F)c1 (stereo not drawn)	82	92	103	-10
COc1ccc(C(N)c2nccc3cc(OC)c(OC)cc23)cc1OC (stereo not drawn)	78	66	107	8
COc1ccc(C(=O)N2C3C=CC(C3)C2(C(F)(F)F)C(F)(F)F)cc1 (stereo not drawn)	82	90	108	-24
Cc1ccc(-n2c(C)c3c(C)nnc(C)c3c2C)cc1C	109	95	103	-19

Screening results (PubChem BioAssay)
